Compound activity from PubChem BioAssay.
CapD inh: blocks the Bacillus anthracis CapD enzyme; purified CapD enzyme, fluorescence intensity read-out; hits give low values; some hits fall short of the stated cut; z-score (no concentration beside the values); actives 0.23% (n = 140,000); AID 492967;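 active = z-score under -4 in either of two replicates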;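 note: stock transfer was 100 nL into about 40 µL; score is relative to mean and spread of the plate; one replicate is shown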
AID504770: E. coli YBA685 growth inhibition, screen for V. cholerae RctB inhibitors | E. coli YBA685 rctB-dependent plasmid, OD600 growth, 3 h; hits give low values | z-score (test concentration not listed) | actives 0.27% (n = 130,000) | AID 504770;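 active = z-score under -2 on both plates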;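 note: wells of about 30 µL received 100 nL stock; score is relative to mean and SD of the test wells; the first replicate is given; strong numbers were not always called active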
An asterisk follows results filed as active; / = no result given. The list is partial; count on the stated rates, not on these rows.

compound | CapD inh | AID504770
CCOc1ccc(CC(=O)NCCn2ccc3ccccc32)cc1 | -0.07 | 0.2
c1ccc(COc2ccccc2OCc2ccccc2)cc1 | 0.635 | 0.85
O=C(CN1CCc2sccc2C1c1cccs1)Nc1ccc2c(c1)OCO2 (centres undefined) | / | 0
Cc1ccc(NC(=O)C(Cc2ccccc2)NC(=O)c2ccco2)cc1 (centres undefined) | -0.295 | -0.75
O=c1c2[nH]cnc2n(-c2ccccc2)c(=O)n1Cc1ccccc1 | 1.01 | -1.5
O=CNCCCc1nc2ccccc2n1Cc1ccc(F)cc1 | -0.73 | -0.65
O=C1CN(Cc2ccccc2)C(=NCc2ccco2)S1 | / | 0.75
CCOC(=O)c1sc2nc(CSc3nncn3-c3ccccc3)[nH]c(=O)c2c1C | / | -0.15
Cc1ccc(-c2c(C(=O)N3CCCCC3)oc(=O)c3ccccc23)cc1 | -0.135 | 0.15
CCOC(=O)C1=C(C)NC2=C(C(=O)CC(c3ccco3)C2)C1c1cccs1 (centres undefined) | 21.7 | -0.3
CCN(C(=O)c1c(-c2c(Cl)cccc2Cl)noc1C)C(Cc1ccccc1)c1ccc(OC)cc1 (centres undefined) | -0.16 | 0.25
Cc1ccc2nc(-c3ccc(-c4ccccn4)s3)cn2c1 | 32.2 | -0.35
CC(O)(C#CCN1CCOCC1)c1ccccc1 (centres undefined) | 0.175 | -0.95
COC(=O)c1cc(=O)n2c(n1)sc1cc(C)ccc12 | 0.8 | /
Cn1c(=O)[nH]c2nnc(-c3ccccn3)nc2c1=O | 0.58 | 0.95
O=C(O)C1=CC(c2ccccc2)n2nnnc2N1 (centres undefined) | / | -0.8
CC(C)c1cc(N=NC(N)=O)cc(C(C)C)c1O | / | -0.25
CC1Cc2cccc3c(O)cc(=O)n1c23 (centres undefined) | / | -0.4
CC(C)CNC(=O)N1c2ccccc2Sc2ccccc21 | 8.1 | 0.4
CCNC(=S)n1ncc(C(=O)OCC)c1N | / | -0.2
CCC(O)C1=C(c2cccs2)Oc2ccccc2C1c1ccccc1C (centres undefined) | -0.82 | 2
Cc1ccc(N2C(=O)CSC23C(=O)N(CN2CCN(c4ccccc4)CC2)c2ccccc23)cc1C (centres undefined) | -0.36 | /
Cc1n[nH]c(C)c1-c1ccc(Cl)c(C(=O)O)c1 | / | -0.05
CC(C)Cn1c(N)c(C(=O)COC(=O)c2ccncc2)c(=O)n(C)c1=O | / | 0.3
N#Cc1c(N)nc(SCC(=O)c2ccc3ccccc3c2)c(C#N)c1-c1cccc(F)c1 | 4.46 | 0.8
FC(F)Oc1ccc(-c2cn3c(n2)-c2ccccc2C3)c(OC(F)F)c1 | -0.275 | /
Cc1cccc(C)c1NC1=NC(C)(C)N=C(N)N1 | 0.725 | -0.65
CCn1c(SCCOc2ccc(OC)cc2)nc2ccccc21 | -0.185 | -0.45
COC(=O)c1c(O)c(C=Nc2ccc(C)cc2)c(=O)n2c1CCC2 | / | -0.35
COc1cccc(Cn2c(=O)n(Cc3ccccc3)c(=O)c3cccnc32)c1 | 0.585 | 0

2 of the compounds above, with values under each structure.
The line under a structure holds: CapD inh	AID504770
CC(C)c1cc(N=NC(N)=O)cc(C(C)C)c1O
    /	-0.25
CC1Cc2cccc3c(O)cc(=O)n1c23 (centres undefined)
    /	-0.4

Back to the main list, repeating the 5 entries before the break.
compound | CapD inh | AID504770
FC(F)Oc1ccc(-c2cn3c(n2)-c2ccccc2C3)c(OC(F)F)c1 | -0.275 | /
Cc1cccc(C)c1NC1=NC(C)(C)N=C(N)N1 | 0.725 | -0.65
CCn1c(SCCOc2ccc(OC)cc2)nc2ccccc21 | -0.185 | -0.45
COC(=O)c1c(O)c(C=Nc2ccc(C)cc2)c(=O)n2c1CCC2 | / | -0.35
COc1cccc(Cn2c(=O)n(Cc3ccccc3)c(=O)c3cccnc32)c1 | 0.585 | 0
CC(=O)Nc1ccc(S(=O)(=O)NC2CCCCNC2=O)cc1 (centres undefined) | 0.715 | /
COc1cc(N2CN=c3s/c(=C\C=C\c4ccccc4)c(=O)n3C2)cc(OC)c1OC | -0.11 | -0.25
CCn1nnc2cc(C(=O)OCC(=O)Nc3cc(F)ccc3F)ccc21 | / | -0.35
CCOc1ccc(-n2c(C)nc3cc(C(=O)NCc4ccccc4Cl)ccc32)cc1 | 0.32 | -0.35
Cc1cc(C)n(CC(=O)NCc2cc(-c3nn(C)c(=O)c4ccccc34)ccc2C)n1 | 0.05 | 1.15
CN1CCCN(C(=O)c2ccc3c(c2)OCO3)c2nc3ccccc3nc21 | / | -0.3
CCC(=O)n1nc(-c2ccccc2)nc1NCc1ccco1 | 1.08 | 0.1
CC1(C)Cc2c(sc(N3C(=O)C4CC=C(Cl)CC4C3=O)c2C#N)CO1 (centres undefined) | 0.34 | -0.55
O=c1c(Cl)c(-n2cccn2)cnn1-c1ccc(Cl)cc1Cl | -0.56 | 1.85
Cc1ccc2cc3c(N)nn(C(=O)c4ccncc4)c3nc2c1 | -0.555 | -0.3
Nc1cc(N)cc(C(=O)OCN2C(=O)c3ccccc3C2=O)c1 | -0.15 | 0.05
CCCc1cc(=O)n2[nH]cc(-c3ccc(Cl)cc3)c2n1 | 64.1 | 0.3
O=C1C[C@@H]2[C@@H](CO)[C@H](OC(=O)c3ccc(-c4ccccc4)cc3)C[C@@H]2O1 | 0.315 | -0.7
O=C(NCCc1c[nH]c2ccc(O)cc12)OCc1ccc(-c2ccccc2)cc1 | -0.69 | /
CN(C)P(=NC(=S)N1CCCC1)(N(C)C)C12CC3CC(CC(C3)C1)C2 | / | -0.2
Cc1ccc2c(COC(=O)CCn3c(C)csc3=O)cc(=O)oc2c1 | / | 1.4
Cc1csc(=Nc2cccnc2)n1Cc1ccco1 | / | 1.1
N#Cc1ccc(/C=C/C(=O)O)cc1 | / | -0.75
CCn1c(Cc2ccccc2)nnc1SCc1cccc(C(=O)O)c1 | 0.695 | -0.55
COc1ccc(S(=O)(=O)n2c(SCC(=O)Nc3cc(Cl)ccc3OC)nc3ccccc32)cc1 | -0.395 | /
Cn1c(-c2ccco2)nn(C2CC(=O)C3OCC2O3)c1=S (centres undefined) | 0.695 | -0.5
CC(C(=O)NC(N)=O)N1CCc2ccccc21 (centres undefined) | / | 0.3
CC(C)(C)c1cc(O)cc(C(C)(C)C)c1 | -0.1 | 0.05
CCC(=O)Nc1nc2ccc3nc(SC)sc3c2s1 | 0.46 | 3.25
COC(=O)c1sc(S(C)(=O)=O)c(C#N)c1-c1cccs1 | -0.85 | 1
CC12C=CC(CO)(O1)C1C(=O)N(c3ccc(Br)cc3)C(=O)C12 (centres undefined) | -0.695 | 1.4
Cc1cc(=O)oc2cc(OCC(=O)C(C)(C)C)c(Cl)cc12 | 11.4 | 0.85
Cc1cc(NCn2ncc3ccccc3c2=O)ccc1Br | -0.5 | 1.9
CC(=O)N1CCN(c2ccc(Oc3ccnc4cc(Cl)ccc34)cc2)CC1 | / | 0
CCC1NCc2c(sc3c2CCCC3)-n2cccc21 (centres undefined) | -1.48 | 0.95

The results go on.
compound | CapD inh | AID504770
CCC(C)[C@@H](C(=O)NCc1ccccc1C)N1Cc2ccccc2C1=O (some centres undefined) | 0.13 | 0.2
Cc1c(C#N)c(Sc2ccccn2)nc2ccccc12 | -0.17 | 1.4
Cn1cccc1CC(=O)N/N=C\c1ccccc1 | 0.205 | -0.75
O=C(O)C1CCN(c2ncc(C(F)(F)F)cc2Cl)CC1 | 0 | -0.45
COc1ccc(NC(=O)NC2CCCN2S(=O)(=O)c2ccc(Cl)cc2)cc1 (centres undefined) | / | 0
CC(C)N(Cc1nnc(-c2ccccc2)o1)C(=O)/C=C/c1cccs1 | / | -0.45
COc1cc(C(=O)Nc2ccc(S(=O)(=O)N3CCCCC3c3cccnc3)cc2)cc(OC)c1OC (centres undefined) | 0.21 | /
CCN(CC)S(=O)(=O)c1cc(C(=O)O)ccc1C | -0.1 | -1.05
c1ccc(C2=NNC(c3ccccc3)C2)cc1 (centres undefined) | / | -0.7
CC(=O)c1cc(NC(=O)c2ccc(Cl)cc2)c(=O)n(Cc2ccco2)c1C | 0.71 | /
O=C(O)c1[nH]c2ccc([N+](=O)[O-])cc2c1-c1ccccc1 | -1.73 | /
CCOC(=O)c1nn(-c2ccc(Cl)cc2)cc1O | -0.105 | -1.25
CC(C)c1ccc(NS(=O)(=O)c2ccc(-n3cccn3)cc2)cc1 | -0.2 | 0.9
COc1ccc(C2=N/C(=C/c3ccco3)C(=O)O2)cc1OC | -1.1 | 1.4
CC(C)(CO)NS(=O)(=O)c1ccc2c(c1)C(=NO)c1cc(S(=O)(=O)NC(C)(C)CO)ccc1-2 | 6.33 | 0.5
Cn1ccnc1SCC(=O)NC(c1ccccc1)c1ccccc1 | / | -0.65
CN=C1SC(CC(=O)NCc2ccccc2)C(=O)N1/N=C/c1c(C)nn(Cc2ccccc2)c1C (centres undefined) | / | 3
CC(NC(=O)OCC1c2ccccc2-c2ccccc21)C(=O)O (centres undefined) | -1.29 | 2.6
S=c1sc2ccccc2n1CN1CCN(c2ccccn2)CC1 | / | -0.35
Cc1c(-c2nnnn2-c2ccccc2)cnc2ccccc12 | 0.015 | -1.2
Cn1c(SCC(=O)c2cc(Cl)c(Cl)s2)nnc1-c1ccco1 | -1.83 | -0.15
CCCCN(CC)c1nc(N)c(C#N)c(CC#N)c1C#N | / | -0.7
COc1ccc(NC(=O)CN2C(=O)c3ccccc3C2=O)cc1 | -0.515 | 0.65
O=C(Oc1ccccc1N1CCOCC1)c1cccnc1Oc1ccccc1 | 0.47 | -0.55
N#CCSc1nc2ccccc2nc1Cc1cccc([N+](=O)[O-])c1 | -0.28 | /
COc1cc(C(=O)NNC(=O)c2ccccc2COC(=O)c2ccccc2)nc2ccccc12 | 30.3 | /
CSc1cccc(NC(=O)CCS(=O)(=O)c2ccc3c(c2)CCN3C(C)=O)c1 | 0.25 | -0.55
COC(=O)c1ccc(Oc2ncc(C(F)(F)F)cc2Cl)cc1 | -0.365 | -0.1
O=C(c1ccccc1NS(=O)(=O)c1ccccc1)N1CCCC1 | 0.21 | -1
O=Nc1sc2ccc3ccccc3c2c1O | -0.08 | 0.1

An excerpt from above in order of length of the SMILES, lowest first.
compound | CapD inh | AID504770
Cn1ccnc1SCC(=O)NC(c1ccccc1)c1ccccc1 | / | -0.65
O=C(Oc1ccccc1N1CCOCC1)c1cccnc1Oc1ccccc1 | 0.47 | -0.55
CN=C1SC(CC(=O)NCc2ccccc2)C(=O)N1/N=C/c1c(C)nn(Cc2ccccc2)c1C (centres undefined) | / | 3

Next part
compound | CapD inh | AID504770
CC1(C)CC(=O)C2=C(C1)Nc1ccccc1N(C(=O)Nc1ccc(Cl)c(Cl)c1)C2c1ccco1 (centres undefined) | 3.21 | 1.15
CC(C)CN(CC(=O)N1c2ccccc2CC1C)CC(C)C (centres undefined) | / | -0.75
O=C(CN1CCN(Cc2ccccc2)CC1)N1N=CCC1c1ccccc1 (centres undefined) | -0.09 | -0.5
CC(C)CN1CN(Cc2ccco2)CNC1=S | 3.54 | -0.1
CCOC1CS(=O)(=O)CC1OCC (centres undefined) | -0.04 | 1.35
CCCCS(=O)c1nc(-c2ccc(C)cc2)cc(-c2ccccc2)c1C#N (centres undefined) | -0.715 | -0.95
COc1cc(C=C2C(=O)NC(=O)NC2=O)cc(Cl)c1OCC(=O)O | -1.34 | 2.15
COc1nc(Nc2ccc(Cl)cc2)nc(N2CCCCC2)n1 | -0.31 | /
Nc1nc(CSc2n[nH]c(-c3ccccc3)n2)nc(Nc2ccccc2)n1 | 5.69 | -0.75
CN1c2ccsc2/C(=N/NC(=O)Cc2cccs2)CS1(=O)=O | -1.15 | /
Cc1noc(C)c1COc1cccc(C(=O)Nc2ccccc2)c1 | / | 0.15
Cc1noc2ncc(C(=O)c3ccccc3O)cc12 | / | 1.15
O=[N+]([O-])/C=C/c1ccc([N+](=O)[O-])cc1 | -0.255 | /
CC1CCCC(NC(=O)COC(=O)Cc2ccsc2)C1C (centres undefined) | -0.255 | -0.6
CN(C)Cc1c(O)ccc2c(-c3ccccc3)cc(=O)oc12 | 0.45 | -0.05
CCOc1cccc2c1OC1(C)C(C(=O)Nc3ccc(OC)cc3)C2NC(=S)N1CCOC (centres undefined) | -0.545 | -0.6
CC1(C)CC(NCC(=O)Nc2ccc(C(=O)O)cc2)CC(C)(C)N1 | / | 1.25
OCCNc1nc2ccccc2n1CN1CC=C(c2ccccc2)CC1 | / | 0.75
CC(=O)Nc1nc(C)c(Oc2ccccc2)c(OC(=O)N(C)C)n1 | 9.39 | 0.55
Oc1oc(-c2ccc(Br)cc2)nc1C=Nc1cccc(F)c1 | -0.69 | /
CC(Nc1ccc2c(c1)OCCO2)C(=O)N1c2ccccc2CC1C (centres undefined) | / | -0.4
O=C(O)CSC(SCC(=O)O)c1ccc2c(c1)OCO2 | -1.7 | /
O=C(COC(=O)C(O)c1ccccc1)NC12CC3CC(CC(C3)C1)C2 (centres undefined) | / | 0.15
COC(=O)[C@H](C)NC(=O)C(c1ccccc1)c1ccccc1 | / | 0.2
COc1ccc(-c2nnc3c4ccccc4c(C)nn23)cc1S(=O)(=O)N(C)CCO | 1.4 | 0.45
C=CCn1c(SCC(=O)c2ccc(Br)cc2)nc2cc(C(=O)NCc3ccco3)ccc2c1=O | -0.005 | /
CCn1c(C2CC(=O)N(Cc3ccccc3)C2)nc2ccccc21 (centres undefined) | 0.535 | -0.95
C[C@]12CC3SC3C[C@@H]1CC[C@@H]1[C@@H]2CC[C@]2(C)[C@@H](O)CC[C@@H]12 (some centres undefined) | -0.3 | /
Cc1ccc(-n2c(N)c(C(=O)Nc3ccccc3C)sc2=S)cc1C | -0.25 | /
CN1c2ccccc2N(C)C1c1ccccc1 | -0.17 | 0.1
CC(OC(=O)c1ccc2c(=O)n3c(nc2c1)CCC3)C(N)=O (centres undefined) | / | 1.1
Cc1ccccc1CSC(SCc1ccccc1C)=C(C#N)C(=O)Nc1ccc(F)cc1 | -0.185 | /
